NPYLR7 agonist = activates Aedes aegypti NPYLR7 receptor; activation, % at 10 µM; HEK293T NPYLR7/Galpha15, GCaMP6s calcium fluorescence; hit rate 0.15% among 270,000; AID 1259423; in the data active means activation above about 40%;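 further: 0% = vehicle and 100% = reference agonist at the receptor; some compounds past the cut are filed as inactive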
NPYLR7 agonist max-min = further read-out of NPYLR7 agonist, marked with its call; activation, %; measured here: Max-Min RFU normalised activation; some inactives read as strong as hits;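 span of the calcium signal over five minutes; 0% = vehicle and 100% = native peptide agonist; compound fluorescence can raise it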
* marks the source's active call; other numbers are inactive results; & = joins results of further samples; ! = not active in a repeat.

Start of the listing, in advance (3 entries):
#1 Cc1c(C)n2c3c(=O)n(CCc4ccccc4)c(=O)n(C)c3nc2n1Cc1ccco1
#2 Cc1ccsc1/C=C/C(=O)Nc1cccc(S(C)(=O)=O)c1
#3 CC(=O)Nc1ccc2oc(Cc3ccccc3Cl)nc2c1

assay / compound,1,2,3
NPYLR7 agonist,-0.4,-7.9,25.4
NPYLR7 agonist max-min,1.1,-8.4,33.0

All compounds of this part (from the top)
#1 Cc1c(C)n2c3c(=O)n(CCc4ccccc4)c(=O)n(C)c3nc2n1Cc1ccco1
#2 Cc1ccsc1/C=C/C(=O)Nc1cccc(S(C)(=O)=O)c1
#3 CC(=O)Nc1ccc2oc(Cc3ccccc3Cl)nc2c1
#4 O=C(c1ccc(Nc2cccc(C(F)(F)F)c2)nc1)N1CCc2c([nH]c3ccccc23)C1
#5 COc1ccc(Br)c(C(=O)Nc2cc(C(=O)NCc3ccccc3OC)ccc2N2CC3CC(C2)c2cccc(=O)n2C3)c1 (stereo not given)
#6 CCCc1nc(NCCc2c(C)n[nH]c2C)c2cnn(C)c2n1
#7 CCCn1nccc1NC(=O)Nc1cnn(CC)c1
#8 O=C(CC(NCCO)C(=O)O)Nc1cccnc1 (stereo not given)

assay / compound,1,2,3,4,5,6,7,8
NPYLR7 agonist,-0.4,-7.9,25.4,-7.5,-7.7,23.6,7.1,-1.6
NPYLR7 agonist max-min,1.1,-8.4,33.0,-12.2,-1.5,7.8,2.7,-2.9

#9 CC(C)c1nnc(CN2CCN(C(=O)c3ccccc3O)CC2)o1
#10 CSCCC(=O)NC(C)c1cnn(-c2ccccc2C)c1C (stereo not given)
#11 CC(=O)c1c(C)nn(CCC(=O)N2CCC(c3ccccc3C(=O)O)C2)c1C (stereo not given)
#12 COc1ccc(-c2cc(C(=O)NCc3ccncc3)n3nc(C(C)(C)C)cc3n2)cc1
#13 COc1ccc(C(N)c2ccccc2OC)cc1 (stereo not given)
#14 COC12C=CC(CC1)c1c(OC(C)=O)ccc(OC(C)=O)c12 (stereo not given)
#15 Cc1ccccc1CO[C@]1(C(=O)NCCN2CCOCC2)CC(OCc2ccccc2C#N)[C@H](O)[C@H](O)C1 (stereo not given in full)
#16 CC(=O)Oc1ccc(Cn2c(C)c(C(=O)NCc3ccccc3C(F)(F)F)sc2=O)cc1

assay / compound,9,10,11,12,13,14,15,16
NPYLR7 agonist,0.8,-3.1,-3.5,13.1,1.7&1.1,4.3,-3.2,10.3
NPYLR7 agonist max-min,0.1,-8.6,-10.6,8.2,-0.5&1.7,7.6,10.3,4.8

#17 COc1ccc(CNC(=O)CCC2CCCN(Cc3cccc4ncccc34)C2)c(OC)c1 (stereo not given)
#18 Nc1nnc(SCc2nccn2Cc2ccccc2)s1
#19 NC(=O)c1cccc(CC2CCN(C(=O)CCc3cccc(F)c3)C2)c1 (stereo not given)
#20 COC(=O)C1=C(C)N(C)C(C)=C(C(=O)OC)C1c1ccc(SC)cc1
#21 O=C(OCCN1C(=O)c2cccc3c(N4CCCCC4)ccc(c23)C1=O)c1cccc(Cl)c1
#22 CC(C)Cc1nc(N2CCCN(C(=O)C3CCCC3)CC2)c2c(-c3cccc(Oc4ccccc4)c3)noc2n1
#23 CCOC(=O)C1(CCOc2ccccc2)CCN(S(=O)(=O)c2ccccc2F)CC1
#24 CCOc1ccc(CN2CCN(CC#Cc3ccccc3)CC2CCO)cc1 (stereo not given)

assay / compound,17,18,19,20,21,22,23,24
NPYLR7 agonist,-0.8,8.9,2.4,3.6,-13.2,10.1,4.1&13.6,9.2
NPYLR7 agonist max-min,-6.2,2.9,1.2,0.4,-24.9,0.0,0.2&11.8,-2.9

#25 Cc1cc(Cl)ccc1N=Cc1nc(-c2cccc3ccccc23)oc1O
#26 COc1cccc(Cn2c(=O)c(C(=O)NCc3ccco3)nn(-c3ccccc3F)c2=O)c1
#27 Cc1ccc(C(=O)c2c(C)[nH]n(-c3ccccc3)c2=O)cc1C
#28 CCNC(=O)C1(C)CCCN(Cc2ccc(-c3ccccc3)o2)C1 (stereo not given)
#29 O=C(COc1ccc(Cl)cc1)Nc1ccc(Cl)c([N+](=O)[O-])c1
#30 CC(=O)Nn1cnc2c(cnn2-c2ccc(C)c(C)c2)c1=O
#31 O=C(C1COc2ccccc2C1)N1CCN(S(=O)(=O)c2cccc(C(F)(F)F)c2)CC1 (stereo not given)
#32 CCOC(=O)N1CCN(C2CCCN(C(=O)c3cccc(N(C)C)c3)C2)CC1 (stereo not given)

assay / compound,25,26,27,28,29,30,31,32
NPYLR7 agonist,-2.2,-0.6,3.0,0.4,-3.0,7.8,1.4,-9.2
NPYLR7 agonist max-min,-4.6,6.8,-0.2,-1.0,-3.1,4.1,2.6,-8.8

Whole records, looked up by structure. Order of values: NPYLR7 agonist | NPYLR7 agonist max-min
Results for `Cc1ccc(C(=O)c2c(C)[nH]n(-c3ccccc3)c2=O)cc1C` : 3.0 | -0.2
Results for `CCOC(=O)N1CCN(C2CCCN(C(=O)c3cccc(N(C)C)c3)C2)CC1` (stereo not given) : -9.2 | -8.8
Results for `O=C(COc1ccc(Cl)cc1)Nc1ccc(Cl)c([N+](=O)[O-])c1` : -3.0 | -3.1

Carrying on:
#33 Cc1ccc2c(CC(=O)Nc3cc(F)ccc3C)coc2c1
#34 CCc1c(C)cc(C(=O)NCc2ccccc2-n2ccnc2)c(=O)n1C
#35 Cc1ccccc1C(C)(C)CNC(=O)C(C)S(=O)(=O)C(C)C (stereo not given)
#36 COC(=O)c1cccc(S(=O)(=O)NC(=O)c2cccc(OC)c2OC)c1
#37 Cc1cc(N2CCCC(n3cc(C(=O)NCCO)nn3)C2)c2ccccc2n1 (stereo not given)
#38 O=C(CN(C(=O)c1ccccc1Cl)C1CC1)N(CCc1c[nH]c2ccccc12)Cc1ccc(C(F)(F)F)cc1
#39 C#CCN(CC1CCCO1)C(=O)NC1CCN(c2cc(Cl)ccc2OC)C1 (stereo not given)
#40 Cc1cccn2c(CN[C@@H]3CCCC[C@H]3c3ccccc3)c(C(=O)N3CCOCC3)nc12

assay / compound,33,34,35,36,37,38,39,40
NPYLR7 agonist,-2.8,2.9,-1.7,1.8,-0.3,-5.0,-5.2,3.6
NPYLR7 agonist max-min,-2.7,0.9,-2.9,-1.4,-7.0,6.9,-6.9,8.0

Exported with bars between the fields: entries from further up.
cpd | structure | NPYLR7 agonist | NPYLR7 agonist max-min
36 | COC(=O)c1cccc(S(=O)(=O)NC(=O)c2cccc(OC)c2OC)c1 | 1.8 | -1.4
37 | Cc1cc(N2CCCC(n3cc(C(=O)NCCO)nn3)C2)c2ccccc2n1 (stereo not given) | -0.3 | -7.0
38 | O=C(CN(C(=O)c1ccccc1Cl)C1CC1)N(CCc1c[nH]c2ccccc12)Cc1ccc(C(F)(F)F)cc1 | -5.0 | 6.9

Remaining list, next part.
#41 CN(C)C1(CNC(=O)CN2CCCCCC2=O)CCCCC1
#42 COc1ccc(C2c3cccn3CCCN2Cc2ccncc2)c(OC)c1OC (stereo not given)
#43 Cc1ccc(-c2cc(O)c3c(c2)CN(CC(=O)Nc2cc(C)on2)CCO3)cc1
#44 CCN(CCn1cccn1)C(=O)c1cc(COc2ccccc2SC)on1
#45 COCCN(CC(=O)N(CCc1ccccc1)Cc1ccc(C)o1)C(=O)c1ccccc1C
#46 CCOC(=O)N1CCN(CC(=O)N2N=C(c3ccc(F)cc3)CC2c2ccccc2Cl)CC1 (stereo not given)
#47 CC(C)OC(=O)c1ccc(NS(=O)(=O)c2cccc(C#N)c2)cc1
#48 CNc1ccc2ncc(-c3cccc(C(=O)N(C)C)c3)n2n1

assay / compound,41,42,43,44,45,46,47,48
NPYLR7 agonist,3.6,1.5,3.9,7.6&17.7,-1.6,17.6,-1.8,3.5
NPYLR7 agonist max-min,2.6,13.4,1.1,0.4&12.4,-4.8,10.4,-5.6,2.5

#49 COc1ccc(C(CC(=O)NCc2cn3c(n2)SCC3)c2ccccc2)cc1 (stereo not given)
#50 COc1ccc(C)cc1N1C(=O)CSC1c1ccccc1NC(=O)CC(C)C (stereo not given)
#51 COc1ccc(NC(=S)N2CC(=O)N3CCc4ccccc4C3C2)c(C)c1 (stereo not given)
#52 Cc1ccc(OCCN(C)Cc2nc(-c3cccc(Cl)c3)no2)cc1
#53 COc1ccc(C(C)=O)cc1CS(=O)(=O)C(C)c1nc(C)no1 (stereo not given)
#54 CC(C)(C)NC(=O)Cn1nc(C2CC2)c2cnn(-c3ccccc3)c2c1=O
#55 CCCS(=O)(=O)Nc1ccc(N(C)C)c(CN(CCN(C)C)C(=O)C(CC)CC)c1
#56 O=C(/C=C\c1ccccc1)Nc1c2c(nn1CC(=O)NCC1CCCO1)CSC2 (stereo not given)

assay / compound,49,50,51,52,53,54,55,56
NPYLR7 agonist,0.9,-11.2,20.2,8.3,-0.6,-2.7,-1.5,-0.7
NPYLR7 agonist max-min,-1.7,-4.3,31.0,-0.3,-2.3,-3.1,8.2,9.0

#57 CC(C)NC[C@H](O)c1ccc(O)c(O)c1
#58 CC(=O)c1[nH]c(C)c(C(=O)N(C)Cc2cn[nH]c2-c2ccc(F)cc2)c1C
#59 O=C(CCc1nc2ccccc2[nH]1)N1C[C@H](O)[C@@H](N2CCOCC2)C1
#60 CNc1cccc(-c2ccc(N)cc2)n1
#61 CCCCC(NC(C)=O)C(=O)N1CCC2(CC1)Nc1ccccc1C(=O)N2CCO (stereo not given)
#62 Cc1cccc(Cn2c(C(=O)N3CCC(Cc4ccccc4)CC3)cc3ccoc32)c1
#63 COc1cn(CC(=O)NC2CCCCC2)c(CN2CCC(C)CC2)cc1=O
#64 CC1(Cc2ccc(Cl)c(Cl)c2)C(=O)Nc2ccc(F)cc21 (stereo not given)

assay / compound,57,58,59,60,61,62,63,64
NPYLR7 agonist,85.3*!,1.6,8.2,1.9,0.8,-1.5,-0.3,1.1
NPYLR7 agonist max-min,64.0*!,1.2,7.0,1.4,25.8,4.5,-3.3,4.8

#65 CC(C)COc1nc(-c2ccc(Cl)c(Cl)c2)n(-c2ccc(NC(=O)c3ccco3)cc2)n1
#66 Cc1cc(C=CC(=O)NCc2ccc(NC(=O)C3CC3)cc2)c(C)n1C1CC1
#67 O=C(CN(C(=O)c1ccccc1F)C1CC1)N(CCc1c[nH]c2ccccc12)Cc1ccc(C(F)(F)F)cc1
#68 CCCCOC(=O)N1C[C@@H](C(=O)O)[C@@H]2Oc3c(F)cccc3[C@@H]21
#69 Nc1nn(S(=O)(=O)c2ccc(Cl)cc2)cc1-c1ccc(F)cc1
#70 COc1ccc(Br)cc1S(=O)(=O)Nc1ccc2c(c1)OCO2
#71 Cc1noc(C)c1C(=O)N[C@H](C)c1ccc2ccccc2c1
#72 CCOc1cc([C@@H]2C[C@H]3CN(Cc4cccc(Cl)c4)C(=O)[C@]34CCCN24)ccc1OC

assay / compound,65,66,67,68,69,70,71,72
NPYLR7 agonist,4.3,-3.6,20.9,1.2,10.4,4.5,-7.5,6.2
NPYLR7 agonist max-min,10.7,-3.8,18.4,10.1,3.9,1.1,-14.8,4.0

#73 O=C1NC(=S)N(c2ccc(Cl)cc2)C(=O)/C1=C\c1ccc(Sc2ccc(Cl)cc2)o1
#74 CC(C)(CN1CCN(c2ccccc2)CC1)NS(=O)(=O)c1ccc(Cl)cc1
#75 S=c1[nH]ccn1-c1cccc(Cl)c1
#76 CC1=NC2=C(C(=O)CC(c3ccccc3)C2)C(c2ccc(C)cc2)C1C#N (stereo not given)
#77 O=C(COc1ccccc1Cc1ccccc1)N(Cc1cccnc1)C1CCS(=O)(=O)C1 (stereo not given)
#78 CCSc1ccc(-c2ccc(C)cc2)nn1
#79 CC(=O)c1ccc2c3c(cccc13)C(=O)N(C)C2=O
#80 Cc1cc(C)n(-c2cccc(CN3CCCN(C)C4(CCN(C)CC4)C3)c2)n1

assay / compound,73,74,75,76,77,78,79,80
NPYLR7 agonist,2.9,0.7,3.0,3.1,1.8,0.6,-7.4,17.3
NPYLR7 agonist max-min,3.2,-0.4,22.9,3.4,0.6,-0.9,-14.7,9.5

#81 O=c1[nH]c(=O)n(Cc2nnc(-c3cccs3)o2)cc1Cl
#82 CS(=O)(=O)C(C#N)=Cc1ccc(F)c(Br)c1
#83 CCOC(=O)c1sc2ncn(CC(=O)NC(C)c3ccccc3)c(=O)c2c1C (stereo not given)
#84 O=C(NCCC1=CCCCC1)c1cc(N2CCOCC2)nc2ccccc12
#85 Cc1occc1C(=O)N1CC[C@@H](c2ccc3ccccc3c2)[C@H](O)C1
#86 Cc1ccn2c(=O)c(NC(=O)c3ccccc3Br)c(C)nc2c1
#87 Cc1cc(C(=O)N(CCCN2CCOCC2)c2nc3ccccc3s2)no1
#88 CC1(C(=O)Nc2ccccc2F)CCN1C(=O)CC(c1ccccc1)c1ccccc1 (stereo not given)

assay / compound,81,82,83,84,85,86,87,88
NPYLR7 agonist,-0.1,5.4,1.0,-17.7,-4.2,5.3,2.6,15.9
NPYLR7 agonist max-min,13.3,3.8,7.3,-2.4,-1.9,5.4,1.6,15.4

#89 Cc1cccc(COC2CCCN(C(=O)c3ccc4c(c3)OCO4)C2)c1 (stereo not given)
#90 O=[N+]([O-])c1ccc(N=P(N2CCOCC2)(N2CCOCC2)C23CC4CC(CC(C4)C2)C3)cc1
#91 CCC(=O)N1CCC1(C)C(=O)Nc1ccc(OC(F)F)cc1 (stereo not given)
#92 COc1ccc(CN2CCn3nc(C(=O)NCCCN4CCCCC4C)cc3C2=O)cc1 (stereo not given)

assay / compound,89,90,91,92
NPYLR7 agonist,-8.1,1.1,4.4,12.4
NPYLR7 agonist max-min,1.0,-10.6,0.2,15.0

Compound activity: PubChem, Fisher Drug Discovery Resource Center

A portion of the library, so the mix of outcomes need not match the whole.
